MT1-MMP reporter: inhibitors of MT1-MMP promoter transcription, cell-based, luciferase reporter, luminescence (AID 618); MT1-MMP promoter luciferase reporter cells, luminescence; actives 0.62% (n = 87,000); calls from a first round at 10 µM; hits with a dose series show EC50 in µM;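 active means over half of the reporter light lost at 10 µM or EC50 under 50 µM; inactive means the rest and hits that failed the dose series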;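 further: actives suppress MT1-MMP promoter-driven transcription so potencies describe inhibitors; HT1080 fibrosarcoma cells; overnight exposure; toxic or luciferase-blocking compounds were not removed from the actives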
Hsc70 ATP site: Hsc70 inhibitors, probe displacement, primary screen, biochemical, fluorescence polarization (AID 568); 83,000 tested, under 10 active; displacement, % at 20 µM, or IC50 in µM where a hit was titrated; Heat shock cognate 71 kDa protein (Homo sapiens); Hsc70 fluorescence polarization, probe displacement; higher % means a stronger effect; strong numbers were not always called active;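 active means displacement above 50% without optical interference and an IC50 on retest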;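 further: ATPase domain with a fluorescein-tagged ATP probe; 0% = vehicle and 100% = excess ADP; read after one hour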
WNV NS2B-NS3 inh: inhibitors of WNV NS2B-NS3 protease, primary screen, biochemical, fluorogenic substrate; fluorogenic substrate Ex360/Em465; hits give low values; Genome polyprotein (West Nile virus), P06935; z-score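 (tested at a level between 10 and 100 µM)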; actives 0.18% (n = 65,000);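 active means z-score at -3 or under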;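 further: score is relative to mean and spread of the compound wells of a plate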
Target sequence (P06935 1371-1501 limits assumed): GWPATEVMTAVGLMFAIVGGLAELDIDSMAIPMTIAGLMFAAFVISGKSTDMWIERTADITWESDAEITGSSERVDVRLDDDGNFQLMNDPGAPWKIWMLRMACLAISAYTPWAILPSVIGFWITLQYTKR
Target sequence (P06935 1502-1679 limits assumed): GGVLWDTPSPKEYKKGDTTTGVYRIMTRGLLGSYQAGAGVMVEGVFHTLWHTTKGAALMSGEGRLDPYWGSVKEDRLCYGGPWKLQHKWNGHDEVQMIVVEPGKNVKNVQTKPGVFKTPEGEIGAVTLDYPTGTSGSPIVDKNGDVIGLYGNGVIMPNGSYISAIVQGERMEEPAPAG
* marks the source's active call; other numbers are inactive results; i = inactive; / = no result given.

SMILES	MT1-MMP reporter	Hsc70 ATP site	WNV NS2B-NS3 inh
O=C1CC(N2CCC(O)(c3ccc(Cl)cc3)CC2)C(=O)N1 (stereo unspecified)	i	4.1%	-0.53
CC1=NN2C(=N)/C(=C\c3ccc(SCc4ccccc4)o3)C(=O)N=C2S1	i	5.0%	/
COc1ccc(C(=O)Nc2ccc(S(=O)(=O)N3CCCC3)cc2)c(OC)c1	i	7.4%	/
CCSc1nc2ccccc2n1CCOc1ccccc1	i	3.4%	/
CCc1nnc(NC(=O)C2CC(=O)N(Cc3ccco3)C2)s1 (stereo unspecified)	i	-0.7%	-0.01
O=C(CCCSc1nc2sc3c(c2c(=O)[nH]1)CCC3)NCCCO	i	1.9%	-0.29
Cc1ccoc1C(=O)NCCCNC(=O)c1occc1C	i	1.0%	-0.09
O=C(O)/C=C\C(=O)Nc1ccccc1C(=O)NCc1ccccc1	i	2.6%	/
CC(=O)c1ccc(OCC(O)CN2CC(C)OC(C)C2)cc1 (stereo unspecified)	i	-4.0%	-0.19
CCOc1cccc2cc(-c3csc(NC(=O)CCC(=O)N4CCN(C)CC4)n3)c(=O)oc12	i	6.7%	-0.85
N=c1n(CCO)c2ccccc2n1Cc1ccc(Cl)cc1	i	2.7%	0.79
CC12CCC(C(=O)Nc3cc(Cl)ccc3Cl)(C/C1=N\O)C2(C)C (stereo unspecified)	i	-4.9%	/
Cc1csc(NC(=O)C2CCCC2)n1	i	-0.5%	/
O=C(NCC(c1cccnc1)N1CCN(c2ccccc2F)CC1)c1ccccc1 (stereo unspecified)	i	-1.3%	0.68
COc1ccc(NC(=O)N2CCCC(C(=O)NC(C)C)C2)cc1 (stereo unspecified)	i	1.5%	/
CC(C)Cn1c(SCC(=O)NC2CCCc3ccccc32)nc(O)cc1=O (stereo unspecified)	i	-3.1%	1.3
Cc1cc(C(C)(C)C)cc(S(=O)(=O)Nc2ccc(O)c(C(=O)O)c2)c1C	i	1.5%	/
O=C(CSc1nnc(Cc2cccs2)n1Cc1ccco1)Nc1cccc(Cl)c1	i	8.4%	-0.39
CCN(CC)S(=O)(=O)c1cccc(-c2nnc(SCC(=O)NC3CCCCCC3)n2N)c1	i	2.6%	/
COC(=O)C12CC3CC(C1)CC(n1cnc(Cl)n1)(C3)C2	i	1.1%	/
CCc1ccc(NS(=O)(=O)c2ccc3[nH]cc(C(=O)N4CCCCC4)c(=O)c3c2)cc1	i	2.8%	-0.79
O=C(O)CCc1nn2c3ccccc3n(CCN3CCCCC3)c2nc1=O	i	-0.7%	/
COC(=O)c1sc(NC(=O)COc2cccc3ccccc23)nc1C	i	-1.4%	/
Cc1ccccc1CN1C2=NCCN2c2ccccc21	i	1.2%	0.09
OCCNc1nc(-c2cccnc2)nc2ccccc12	i	-3.4%	0.92
Cc1cc(F)ccc1S(=O)(=O)Nc1ccccc1C(=O)Nc1ncn[nH]1	i	-3.6%	0.85
CCCCCCCC(=O)N/N=C(\C)c1cccnc1	i	0.1%	/
CCOCCn1c(CN2CCCCC2C)nc2c1c(=O)n(C)c(=O)n2C (stereo unspecified)	i	1.5%	-0.26
CCOc1ccc2nc(Cl)c(/C=C/C(=O)c3ccco3)cc2c1	i	-7.1%	/
Cn1c(NC(=O)C2CCCO2)cc(=O)n(C)c1=O (stereo unspecified)	i	-1.0%	0.32
CS(=O)(=O)c1nncn1-c1ccccc1	i	5.7%	-0.25
CC(C)(C)NC(=O)NC(=O)CSc1nnc(COc2ccccc2Cl)o1	i	-5.2%	/
Cc1nnc(Nc2ccc3c(c2)ncn3C)c2ccccc12	i	-5.1%	-0.45
CCN1CCN(c2ncnc3c2cnn3-c2ccc(C)cc2C)CC1	i	-1.2%	1.2
COc1cc(C)nc(Nc2nc(C)c(C(C)=O)s2)n1	i	-4.5%	-0.7
COC(=O)c1[nH]c2ccc(C)cc2c1NC(=O)Oc1ccccc1	i	5.1%	/

Brought forward from above: 5 compounds; new compounds follow.
SMILES	MT1-MMP reporter	Hsc70 ATP site	WNV NS2B-NS3 inh
CC(C)(C)NC(=O)NC(=O)CSc1nnc(COc2ccccc2Cl)o1	i	-5.2%	/
Cc1nnc(Nc2ccc3c(c2)ncn3C)c2ccccc12	i	-5.1%	-0.45
CCN1CCN(c2ncnc3c2cnn3-c2ccc(C)cc2C)CC1	i	-1.2%	1.2
COc1cc(C)nc(Nc2nc(C)c(C(C)=O)s2)n1	i	-4.5%	-0.7
COC(=O)c1[nH]c2ccc(C)cc2c1NC(=O)Oc1ccccc1	i	5.1%	/
COc1ccc(-c2nnc(SCC(=O)NC(=O)NCc3ccccc3)o2)cc1	i	16%	/
Cc1ccc(C(=O)N2CCOCC2)cc1Cl	i	-1.6%	-0.56
O=C(O)C(=O)/C(=C\c1cccc2ccccc12)c1ccc2ccccc2n1	i	13%	/
O=C(NCCN1CCOCC1)c1ccc2c(c1)ncn2C1CCCC1	i	-0.3%	-0.58
CC(C)n1c(SCc2ccccc2F)nc2c1c(=O)n(C)c(=O)n2C	i	-0.4%	0.13
C#CCN1C(=O)C(O)(CC(=O)c2ccc3c(c2)OCCO3)c2ccccc21 (stereo unspecified)	i	2.4%	-1.1
N=c1sccn1CC(=O)Nc1ccc(Cl)c(S(=O)(=O)N2CCOCC2)c1	i	-2.1%	/
COc1ccc(OCC(O)CNc2ccc(Br)cc2)cc1 (stereo unspecified)	i	-1.2%	-0.26
COc1cccc(NS(=O)(=O)c2ccc3[nH]cc(C(=O)NCCCOC(C)C)c(=O)c3c2)c1	i	-8.2%	-0.67
COc1ccc(COC(=O)c2ccc(N3CCCC3=O)cc2)cc1F	i	2.9%	-0.76
CSCCC(NS(=O)(=O)c1ccc(Cl)cc1)C(=O)OCC(=O)NC12CC3CC(CC(C3)C1)C2 (stereo unspecified)	i	-0.4%	/
c1ccc(-c2nnc(-c3ccco3)n2-c2ccccc2)cc1	i	4.5%	0.26

Two consecutive records already listed, quoted:
SMILES	MT1-MMP reporter	Hsc70 ATP site	WNV NS2B-NS3 inh
CSCCC(NS(=O)(=O)c1ccc(Cl)cc1)C(=O)OCC(=O)NC12CC3CC(CC(C3)C1)C2 (stereo unspecified)	i	-0.4%	/
c1ccc(-c2nnc(-c3ccco3)n2-c2ccccc2)cc1	i	4.5%	0.26

(listing goes on)
SMILES	MT1-MMP reporter	Hsc70 ATP site	WNV NS2B-NS3 inh
COc1ccc(CCN(C(=O)c2ccc(F)cc2)C2=CC3CCC(C2)N3C)cc1OC (stereo unspecified)	i	-8.9%	0.99
O=C(CNC(=O)c1ccc(Cl)cc1)NCCCn1ccnc1	i	4.9%	0.64
Cc1nn(Cc2ccccc2)c(Cl)c1C(=O)NCc1ccc(C)n1C	i	2.2%	-2.5
CCOc1ccc(-n2c(=S)sc3c(=O)[nH]c(SCC(=O)NC(C)CC)nc32)cc1 (stereo unspecified)	i	-2.3%	/
COc1ccc(OC)c2[nH]c(=O)c(CCNC(=O)c3ccc(Br)o3)cc12	i	3.1%	0.84
CCOC(=O)CNC(=O)CSc1nc2cccnc2n1C	i	-3.1%	1.1
CCc1ccc(-c2nn[nH]n2)cc1	i	-2.6%	-0.51
Cc1nc2sc(C(c3ccc(Cl)cc3)N3CCN(C(=O)c4ccco4)CC3)c(O)n2n1 (stereo unspecified)	i	-2.2%	1.2
Cn1c(=O)c2c(nc(SCCN3CCCCC3)n2Cc2ccc(Cl)cc2)n(C)c1=O	i	-3.9%	-0.25
COn1c(SC(C)C)nc2ccccc2c1=O	i	2.5%	/
Cn1nnc2cc(C(=O)N3CCSCC3)ccc21	i	1.7%	-0.31
O=C(O)CN(Cc1ccco1)S(=O)(=O)c1ccc(F)cc1	i	-4.6%	0.77
CCCc1ncc(C(O)c2cccc(OC)c2OC)n1C (stereo unspecified)	i	1.5%	1.4
c1ccc(OCCOc2ccccc2-c2nnco2)cc1	i	0.8%	-0.33
COc1ccc(C(=O)N2CCN(Cc3ccccc3C)CC2)cc1OC	i	1.8%	-0.36
CCOc1ccc(CCNC(=O)c2cc3sccc3n2C)cc1OCC	i	-8.2%	1.7
Cc1nc2ccccc2nc1CSc1nnc(N)s1	i	3.7%	/
COc1ccc(-c2nc3c(c(=O)n(C)c(=O)n3C)n2CC2CC(c3ccccc3)=NO2)cc1OC (stereo unspecified)	i	-4.0%	-0.56
O=C(CCC(=O)N(c1ccccc1)C(C(=O)NC1CCCC1)c1ccncc1)Nc1cccnc1 (stereo unspecified)	i	1.9%	0.32
Cc1ccc(C(=O)Nc2cc(Cl)ccc2N2CCCCC2)s1	i	-0.2%	/
O=C(CN1C(=O)c2cccc3cccc1c23)Nc1ccc(S(=O)(=O)Nc2nccs2)cc1	i	-5.1%	/
Cc1csc(NC(=O)CSc2nncn2C)n1	i	4.7%	-1.2
CCCCn1c(=NC(=O)c2cccnc2)c(C#N)cc2c(=O)n3cccc(C)c3nc21	i	1.6%	/
S=C(c1ccc[nH]1)N1CCOCC1	i	-1.7%	/

Structural class: those above with a tert-butyl group (two)
SMILES	MT1-MMP reporter	Hsc70 ATP site	WNV NS2B-NS3 inh
Cc1cc(C(C)(C)C)cc(S(=O)(=O)Nc2ccc(O)c(C(=O)O)c2)c1C	i	1.5%	/
CC(C)(C)NC(=O)NC(=O)CSc1nnc(COc2ccccc2Cl)o1	i	-5.2%	/

Next records follow:
SMILES	MT1-MMP reporter	Hsc70 ATP site	WNV NS2B-NS3 inh
Cc1ccc2c(CN3CCN(CCO)CC3)cc(=O)oc2c1	i	16%	1.6
CCC(C)NC(=O)c1ccccc1NC(=O)c1ccccc1N(C)S(C)(=O)=O (stereo unspecified)	i	1.3%	/
CC(C)C(NC(=O)CN1C(=O)c2ccccc2S1(=O)=O)C(C)C	i	-5.0%	-0.32
c1ccc(-c2nc(NC3CC3)nc(-n3ccnc3)n2)cc1	i	-3.3%	1.2
O=S(=O)(NCC(c1cccnc1)N1CCN(c2ccccc2)CC1)c1cccs1 (stereo unspecified)	i	-1.1%	1.6
N#Cc1c[nH]n2c(=O)cc(Cc3ccccc3)nc12	i	-5.5%	-0.22
Cc1[nH]n2c(=O)c3c(nc2c1-c1ccc(Cl)cc1)CCC3	i	-2.5%	-0.59
O=S(=O)(NCc1ccccc1)c1cnc[nH]1	i	-4.0%	0.11
Cc1cccc(OCc2nnc(SCC(=O)N3CCCC3)n2C)c1	i	2.3%	0.78
Cc1cccc(C(=O)N2CCCN(C(=O)c3cccc(C)c3)CC2)c1	i	1.6%	/
O=C(CSc1nnc(-c2cccs2)n1-c1ccccc1)Nc1ccccc1	i	0.0%	-0.48
CCOC(=O)C1CCN(C=Nc2cc(C)on2)CC1	i	3.2%	-1.1
Cc1ccc(SCCC(=O)NC(C)C)cc1	i	-1.3%	/
Cc1cccc(N2CCN(C(=O)Cn3cccc3)CC2)c1C	i	-1.8%	0.35
COCCOC(=O)C1=C(C)NC(=O)NC1c1cn(-c2ccccc2)nc1-c1cccs1 (stereo unspecified)	i	-3.4%	1.4
COc1ccc(-c2nnc(-c3ccc(Br)o3)o2)cc1OC	i	-7.2%	0.2
Cc1[nH]n2c(=O)c3c(nc2c1-c1ccccc1)CCCC3	i	-2.4%	-0.52
Cc1cc2c3c(c1)C1(C(=O)N3C(C)(C)CC2C)C(C#N)=C(N)OC2=C1C(=O)CC(C)(C)C2 (stereo unspecified)	i	2.5%	/
Clc1ccc(-c2nnc(SCc3nc4ccccc4[nH]3)o2)c(Cl)c1	i	-2.3%	/
Cn1c(=O)c2c(nc(CN3CCN(C(=O)c4ccco4)CC3)n2Cc2ccccc2F)n(C)c1=O	i	4.4%	-0.16
O=C(C1CCC1)N1CCc2cc(S(=O)(=O)N3CCc4ccccc4C3)ccc21	i	-4.2%	1.3
O=C(NCCN1CCOCC1)c1cc(-c2ccc(Cl)cc2)on1	i	-7.4%	1.1
CCN1CCN(c2ncc(C(=O)N3CCCc4ccccc43)c3ccccc23)CC1	i	0.3%	-0.04
COc1ccc(N2CCN(C(c3cccs3)C(C)NC(=O)c3ccco3)CC2)cc1 (stereo unspecified)	i	-5.2%	0.69
O=C(NCc1ccccc1Cl)c1cnc2n(c1=O)CCS2	i	-6.6%	-1.2
CCN(CC)CCN1C(=O)C(=O)/C(=C(/O)c2cnn(-c3ccccc3)c2C)C1c1cccnc1 (stereo unspecified)	i	4.8%	0.52
CCC(C)(C)n1nnnc1CN(Cc1cccs1)Cc1cc2cc(OC)ccc2[nH]c1=O	i	4.8%	0.77
Cc1ccc(-c2nc3ncccn3c2NC(=O)C2CC2)cc1	i	3.0%	0.23
CCC(C)C(NC(=O)c1ccccc1NC(=O)c1ccco1)C(=O)O (stereo unspecified)	i	-3.1%	-0.0042
O=C(O)c1cc2ccccc2c(=O)s1	i	2.7%	/
CCOc1cc(CNn2cnnc2)ccc1OCC(=O)NC1CCCCC1	i	-1.3%	0.42
O=P(O)(CP(=O)(c1ccccc1)c1ccccc1)c1ccccc1O	i	0.8%	/
CCN(CC)CCCN1C(=O)C(=O)/C(=C(/O)c2ccccc2)C1c1cc(OC)ccc1OC (stereo unspecified)	i	0.0%	-0.61
COc1ccc(N2CCN(S(=O)(=O)c3ccc(Br)s3)CC2)cc1	i	-2.7%	0.08
COc1ccccc1C(=O)N1CCN(S(=O)(=O)Cc2ccccc2)CC1	i	0.2%	0.26
COC(=O)Cc1n[nH]c(=S)[nH]c1=O	i	3.6%	0.64
CCOC(=O)c1c(N)sc(C(C)=O)c1C	i	-0.7%	/
CCOC(=O)c1c(C(F)(F)F)nc2ncccn12	i	0.4%	/
O=C(O)CCc1ccc(-c2ccc(Br)cc2)o1	i	4.3%	-0.38

Assay outcomes as filed in PubChem BioAssay.
